Ecoli rRNA inh – reduced GFP signal of wild-type E. coli, primary screen, bacterial rRNA inhibitor project, GFP/RFP fluorescence, OD600, single point; GFP signal change (wild-type ribosome), % (no concentration beside the values); E. coli WT GFP vs humanized-ribosome RFP mutants, 24 h; active compounds read low; DMSO median 0, no signal -100; 350,000 tested, 1.6% active;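 active = significant combined selectivity score with lowered wild-type GFP, culture density cut under 30%, mutant RFP and density less affected; inactive = any of these conditions unmet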; note: one replicate is shown; some compounds called inactive have numbers as strong as hits
FGF22 binding – binders of human FGF22 protein, primary screen, FGF22 synaptogenesis inhibitor project, biophysical, thermal shift, single point | recombinant FGF22 thermal shift, SYPRO orange fluorescence; percent of sucrose octasulfate shift, DMSO zero | calls only at 9.99 µM | 340,000 tested, 1.5% active | AID 651658, 2012;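 active = melting point raised past a set limit in the mean and every replicate; inconclusive = no clear call; three in four hits are not shown here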
Target sequence (Q9HCT0 whole entry, looked up): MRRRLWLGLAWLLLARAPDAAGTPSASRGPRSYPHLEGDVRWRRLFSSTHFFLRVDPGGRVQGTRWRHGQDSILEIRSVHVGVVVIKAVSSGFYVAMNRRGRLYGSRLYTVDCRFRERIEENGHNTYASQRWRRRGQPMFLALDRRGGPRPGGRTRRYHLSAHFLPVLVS
MLL AF4-AF9 inh – inhibitors of AF4 peptide binding to AF9, primary screen, biochemical, AlphaScreen, biotin-AF4 peptide, FLAG-AF9, single point | Protein AF-9 (Homo sapiens), P42568 | inhibition, % at 10 µM | 350,000 tested, 0.47% active;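 active = every replicate reaching a set inhibition limit, whatever the replicate mean, cut at about 25% in these data; inconclusive = mean inhibition reaches that limit but some replicates miss it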;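 note: 0% = plate neutral control median and 100% = total signal loss; the record names both 10 and 1 µM as test concentration; the first replicate is given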
Target sequence (P42568 whole entry, looked up): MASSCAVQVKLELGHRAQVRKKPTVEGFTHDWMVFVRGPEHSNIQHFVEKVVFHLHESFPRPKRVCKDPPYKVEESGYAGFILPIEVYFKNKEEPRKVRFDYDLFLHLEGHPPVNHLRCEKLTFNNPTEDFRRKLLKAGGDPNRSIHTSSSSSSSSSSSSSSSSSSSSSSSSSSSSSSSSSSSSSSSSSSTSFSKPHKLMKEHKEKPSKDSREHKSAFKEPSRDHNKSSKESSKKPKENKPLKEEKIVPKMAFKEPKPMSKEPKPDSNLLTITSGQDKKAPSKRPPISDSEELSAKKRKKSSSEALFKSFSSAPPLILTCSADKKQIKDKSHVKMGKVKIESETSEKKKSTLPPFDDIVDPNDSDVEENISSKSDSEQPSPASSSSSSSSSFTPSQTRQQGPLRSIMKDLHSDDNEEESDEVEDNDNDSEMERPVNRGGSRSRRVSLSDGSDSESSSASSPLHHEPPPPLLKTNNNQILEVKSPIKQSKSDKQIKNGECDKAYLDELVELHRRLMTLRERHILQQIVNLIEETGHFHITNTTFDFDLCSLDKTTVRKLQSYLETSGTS
Ecoli rRNA inh OD600 – second read-out of Ecoli rRNA inh, no call of its own (marks repeat the call); OD600 change, %; measured here: OD600 growth;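 optical density of the mix in the first replicate; 0 = DMSO median and -100 = no signal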
Ecoli rRNA inh RFP – further read-out of Ecoli rRNA inh, marked with its call; RFP signal change, %; measured here: RFP humanized mutant strains;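 first replicate; 0 = DMSO median and -100 = no signal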
An asterisk follows results filed as active; i = inactive; u = inconclusive; & = joins results of further samples.

Ecoli rRNA inh	Ecoli rRNA inh OD600	Ecoli rRNA inh RFP	FGF22 binding	MLL AF4-AF9 inh	SMILES
-10	-25	1.2	i	0.4	O=C(C[C@H]1C[C@@H]2c3cc(NS(=O)(=O)c4ccc(F)cc4)ccc3O[C@@H]2[C@H](CO)O1)N1CCc2ccccc2C1
2	-5	-2.0	i	13	CCCNC(=O)N1CC2(CCN(CC3CCCCC3)CC2)c2c(n(C)c3cc(OC)ccc23)[C@H]1CO
-1	-4	-2.3	i	-0.3	COc1cccc(S(=O)(=O)Nc2ccc3c(c2)OC[C@H](C)N(C(=O)Cc2cccnc2)C[C@@H](C)[C@H](OC)CN(C)C3=O)c1
-8	-2	-2.1	i	-3.6	COc1ccc(NC(=O)Nc2ccc3c(c2)C(=O)N([C@H](C)CO)C[C@H](C)[C@@H](CN(C)S(=O)(=O)c2cccs2)OCCCC[C@H](C)O3)cc1
-21	-52	-5.8	i	-2.5	COC(=O)C(C(=O)OC)c1ccccc1NS(=O)(=O)c1ccc(C)cc1
3	2	0.4	i	-2.6	O=C(CN1CCOCC1)N1CCCCN2[C@H](CO)[C@@H](c3ccc(-c4ccccc4F)cc3)[C@@H]2C1
-16	-34	4.6	i	-0.6	N#C[C@@H]1[C@H](c2ccc(C#Cc3ccc(F)cc3)cc2)[C@@H](CO)N1C(=O)Nc1ccc(F)cc1
1	-3	0.7	i	4.9	Cc1noc(C)c1S(=O)(=O)N(C)C[C@H]1Oc2ccc(NC(=O)Cc3cn(C)c4ccccc34)cc2CC(=O)N([C@H](C)CO)C[C@H]1C
11	17	0.2	i	-4.5	CCOC(=O)C1=C(COC(=O)C2CC(=O)N(c3ccccc3CC)C2)NC(=O)NC1C (stereo not given)
7	7	-2.9	i	-1.3	CNC[C@H]1OCCCC[C@@H](C)Oc2ccc(NC(=O)c3ccncc3)cc2C(=O)N([C@@H](C)CO)C[C@@H]1C
-5	-22	19	i	2.1	CC(C)CC#Cc1ccc2c(c1)O[C@H](CN(C)CC1CCOCC1)[C@H](C)CN([C@@H](C)CO)S2(=O)=O
-8	-18	1.5	i	-0.3	COc1cc(C(=O)N(Cc2ccccc2)c2cccc(C)c2)ccc1OCC(=O)N1CCOCC1
1	4	0.6	i	-1.4	C[C@H]1CN([C@@H](C)CO)C(=O)c2cc(NC(=O)Nc3ccccc3)ccc2O[C@@H]1CN(C)C
-6	-12	3.1	i	5.6	O=C(NCc1ccco1)Nc1cccc2ccccc12
-5	-7	-2.5	i	-11	O=S(=O)(Cc1ccccc1)N1CCCCN2[C@H](CO)[C@@H](c3ccc(-c4cncnc4)cc3)[C@@H]2C1
-4	-9	-4.7	i	-0.4	COc1ccccc1CNC(=O)C[C@H]1C[C@@H]2c3cc(NC(=O)NC4CCCC4)ccc3O[C@@H]2[C@@H](CO)O1
-6	-6	6.0	i	-0.4	O=C(Nc1ccc(C(F)(F)F)cc1)N[C@@H]1CC[C@@H](CCNC(=O)c2ccccc2F)O[C@H]1CO
3	1	1.0	i	0.2	C[C@@H]1CN([C@@H](C)CO)C(=O)c2cccc(NS(C)(=O)=O)c2O[C@@H]1CN(C)Cc1ccc(C(=O)O)cc1
5	7	0.9	i	-1.0	C[C@H]1CN([C@@H](C)CO)C(=O)c2cc(NS(=O)(=O)c3cn(C)cn3)ccc2O[C@@H]1CN(C)Cc1ccc2c(c1)OCO2
-2	4	3.3	i	2.9	COc1ccc(NC(=O)Nc2ccc3c(c2)C(=O)N([C@H](C)CO)C[C@@H](C)[C@@H](CN(C)Cc2ccc(-c4ccccc4)cc2)O3)cc1
0	8	4.0	i	-1.5	O=C(C[C@H]1C=C[C@H](NC(=O)C2CCOCC2)[C@@H](CO)O1)NCc1ccncc1
-4	-20	0.4	i	-0.2	CCC(=O)N(C)C[C@@H]1Oc2cc(-c3ccccc3)ccc2S(=O)(=O)N([C@H](C)CO)C[C@H]1C
-6	-4	3.9	i	0.0	CC(C)CNC(=O)C1(C)CCCN1C(=O)C(C)(C)Oc1ccc(Cl)cc1 (stereo not given)
-2	13	-2.3	i	-5.1	O=C(COC(=O)/C=C/c1ccc(C(F)(F)F)cc1)Nc1ccc2[nH]c(=O)[nH]c2c1
2	1	-0.5	i	-2.5	Cc1noc(C)c1NC(=O)N(C)C[C@H]1Oc2c(NS(=O)(=O)c3c(C)noc3C)cccc2C(=O)N([C@H](C)CO)C[C@H]1C

Continued; it opens with the two that closed the last part.
Ecoli rRNA inh	Ecoli rRNA inh OD600	Ecoli rRNA inh RFP	FGF22 binding	MLL AF4-AF9 inh	SMILES
-2	13	-2.3	i	-5.1	O=C(COC(=O)/C=C/c1ccc(C(F)(F)F)cc1)Nc1ccc2[nH]c(=O)[nH]c2c1
2	1	-0.5	i	-2.5	Cc1noc(C)c1NC(=O)N(C)C[C@H]1Oc2c(NS(=O)(=O)c3c(C)noc3C)cccc2C(=O)N([C@H](C)CO)C[C@H]1C
1	2	0.2	i	-1.9	Cc1noc(C)c1NC(=O)N[C@@H]1CC[C@@H](CC(=O)Nc2ccccc2)O[C@H]1CO
-23	-59	12	i	7.1	C[C@H](CO)N1C[C@H](C)[C@H](CN(C)Cc2ccccc2)Oc2cc(Br)ccc2S1(=O)=O
-5	-1	-3.4	i	3.4	C[C@@H]1CN([C@H](C)CO)C(=O)c2cc(NS(=O)(=O)c3ccc(F)cc3)ccc2O[C@@H](C)CCCCO[C@@H]1CN(C)C(=O)C1CCCCC1
11	31	9.4	i	-1.8	CCCNC(=O)CNC(=O)c1ccc(C#N)cc1
2	3	6.6	i	2.5	OC[C@@H]1CN(Cc2ccc(F)cc2)C[C@H](n2cnc3c(NCc4ccco4)ncnc32)O1
-3	-6	1.7	i	-1.4	C[C@@H]1CN([C@H](C)CO)C(=O)c2cc(NC(=O)Cc3cn(C)c4ccccc34)ccc2O[C@H]1CN(C)S(=O)(=O)c1cccs1
-3	4	-3.8	i	-1.3	CCCCOCC1CN(CCCC)S(=O)(=O)c2c(Oc3ccc(C)cc3)cccc2O1 (stereo not given)
1	-15	-4.9	i	-3.3	CC(C)CNS(=O)(=O)c1ccc(Br)cc1N1CCC[C@@H]1CO
-2	-19	-0.9	i	0.5	O=C(C[C@@H]1C[C@@H]2c3cc(NS(=O)(=O)c4ccc(F)cc4)ccc3O[C@@H]2[C@H](CO)O1)NCc1cc(F)ccc1F
1	2	-1.3	i	0.0	CCN1[C@@H]2Cn3c(ccc(C4=CCCCC4)c3=O)[C@H]1[C@@H](C(=O)NCCc1ccncc1)[C@@H]2CO
-2	-9	-2.1	i	-3.6	C[C@@H]1CN([C@H](C)CO)C(=O)Cc2cc(NC(=O)CCCCCC(=O)Nc3ccccc3N)ccc2O[C@@H]1CN(C)Cc1ccccc1
1	12	-0.5	i	-11	C[C@@H]1CN([C@H](C)CO)C(=O)CCCn2cc(nn2)CO[C@H]1CN(C)C(=O)CCCN(C)C
0	-2	-0.5	i	-1.2	CCCNC(=O)C[C@H]1CC[C@@H]2[C@H](COc3ccc(NC(=O)c4cccs4)cc3C(=O)N2C)O1
-3&1	-21&-13	9.1&9.8	i	6.3&8.9	COc1cccc(CN(C)C[C@@H]2OCc3ccccc3-c3c(n(C)c4ccccc34)C(=O)N([C@@H](C)CO)C[C@H]2C)c1
-5	-5	-1.0	i	0.9	O=[N+]([O-])c1ccc(Cl)cc1C=NNc1ccccn1
-8	-7	0.6	i	3.2	C[C@H]1CN([C@@H](C)CO)C(=O)c2cc(NC(=O)Nc3ccc4c(c3)OCO4)ccc2O[C@@H]1CN(C)S(=O)(=O)c1cccs1
2	10	-0.2	i	-2.0	C[C@H](CO)N1C[C@H](C)[C@H](CN(C)S(C)(=O)=O)Oc2c(NC(=O)CCCCCC(=O)Nc3ccccc3N)cccc2C1=O
3&-5	-11&-7	2.0&0.2	i	-4.2&-2.7	C[C@H]1CN([C@@H](C)CO)C(=O)CCCn2nncc2CO[C@@H]1CN(C)S(=O)(=O)c1ccc2ccccc2c1
2	2	-2.4	i	u	CO[C@H]1CN(C)C(=O)c2cc(NC(=O)c3cnccn3)ccc2OC[C@@H](C)N(C)C[C@@H]1C
7	7	-1.2	i	-1.6	C[C@H](CO)N1C[C@H](C)[C@@H](CN(C)CC2CC2)OCCCC[C@H](C)Oc2ccc(NS(C)(=O)=O)cc2C1=O
-2	3	-1.2	i	-4.7	CNC(=O)C[C@H]1CC[C@@H]2[C@H](COC[C@H](O)CN2Cc2ccc(Cl)c(Cl)c2)O1
1	11	1.5	i	3.0	COc1ccc2c3c(n(C)c2c1)[C@@H](CO)N(C(=O)C1CCCC1)CC31CN(C(=O)Nc2cccc(F)c2)C1
-1	3	-7.4	i	-1.6	COCOCCn1cc(CN2CCS(=O)(=O)N(Cc3ccc(-c4ccc(Cl)cc4)cc3)C(C(C)C)C2=O)nn1 (stereo not given)
-26	-67	-17	i	-4.0	O=C1[C@@H](Oc2ccccc2)[C@@H](c2cnc3ccccc3c2)N1c1ccccc1
1	-3	-0.9	i	1.2	Cc1noc(C)c1S(=O)(=O)Nc1ccc2c(c1)CC(=O)N([C@H](C)CO)C[C@@H](C)[C@@H](CN(C)CC1CCCCC1)O2
-1	1	1.6	i	-1.5	C[C@H]1CN([C@@H](C)CO)C(=O)c2ccccc2-c2ccccc2CO[C@@H]1CN(C)C(=O)[C@H](Cc1ccccc1)N(C)C
1	-1	-1.0	i	0.0	O=C(C[C@@H]1CC[C@H](NS(=O)(=O)c2ccccc2)[C@H](CO)O1)NCCN1CCCCC1
-10	3	2.6	i	-2.5	COc1cc(C)ccc1S(=O)(=O)NC(=O)C1(C)CCN1C(=O)C1(c2ccc(Cl)cc2)CCC1 (stereo not given)
1	0	-0.7	i	2.0	N#C[C@@H]1[C@H](c2ccc(C3=CCCCC3)cc2)[C@H](CO)N1C(=O)c1ccccn1
4	8	-2.4	i	-4.7	C[C@H](CO)N1C[C@H](C)[C@@H](CN(C)C(=O)C2CCC2)Oc2ncc(-c3cccnc3)cc2C1=O
-2	-30	0.2	i	2.7	COc1ccc2c(c1)C(C)(Cc1ccc(C(=O)c3ccccc3)cc1)C(=O)N2 (stereo not given)
-7	-29	2.1	i	7.4	Cc1ccc(-c2ccc3c(c2)O[C@H](CN(C)Cc2cccnc2)[C@@H](C)CN([C@H](C)CO)S3(=O)=O)cc1
-11	8	0.1	i	15	Cc1ccc(C(=O)Nc2nc(-c3ccco3)c(-c3ccco3)s2)o1
-5	8	1.0	i	-1.4	CCN(CC)C(=O)C1=C(C)N(Cc2ccc(OC)cc2)C(=O)C(CC(=O)NC2CCCCC2)C1 (stereo not given)
0	-6	1.5	i	3.3	C[C@@H]1CCCCO[C@H](CN(C)C(=O)Nc2ccccc2)[C@@H](C)CN([C@@H](C)CO)C(=O)c2cc(NS(=O)(=O)c3cccs3)ccc2O1
2	3	-1.4	i	-0.4	COCC(=O)N1[C@@H](CO)[C@@H]2c3ccccc3N(C(=O)Nc3cc(F)ccc3F)C[C@@H]21
-3	-1	-1.5	i	-2.0	Cc1ccc(-c2cnc3c(c2)C(=O)N([C@H](C)CO)C[C@@H](C)[C@H](CN(C)C(=O)Cc2cccnc2)O3)cc1
-57	-80	-16	i	9.7	CCCCc1c(-c2ccccc2OC)ncn1Cc1ccccc1C
0	-1	0.6	i	2.8	COCC(=O)Nc1ccc2c(c1)OC[C@@H](C)N(CCc1ccccc1)C[C@@H](C)[C@@H](OC)CN(C)C2=O
-12	-14	3.6	i	-7.6	O=C(NCC1COc2ccccc2O1)c1cc(S(=O)(=O)N2CCOCC2)c(Cl)cc1Cl (stereo not given)
0	-6	-2.3	i	1.0	O=C(C[C@@H]1CC[C@@H]2[C@H](COC[C@H](O)CN2S(=O)(=O)c2cccc(F)c2)O1)NC1CCC1
1	-3	-2.3	i	-0.1	CCN(C[C@@H]1[C@@H](c2ccccc2)[C@@H](CO)N1S(C)(=O)=O)C(=O)C1CC1
-3	-5	0.6	i	-7.0	COc1ccc(S(=O)(=O)Nc2ccc3c(c2)OC[C@@H](C)N(Cc2cc(F)ccc2F)C[C@@H](C)[C@H](OC)CN(C)C3=O)cc1

Nothing new here: entries from further up.
Ecoli rRNA inh	Ecoli rRNA inh OD600	Ecoli rRNA inh RFP	FGF22 binding	MLL AF4-AF9 inh	SMILES
-2	-30	0.2	i	2.7	COc1ccc2c(c1)C(C)(Cc1ccc(C(=O)c3ccccc3)cc1)C(=O)N2 (stereo not given)
-7	-29	2.1	i	7.4	Cc1ccc(-c2ccc3c(c2)O[C@H](CN(C)Cc2cccnc2)[C@@H](C)CN([C@H](C)CO)S3(=O)=O)cc1

Ordered by the number under Ecoli rRNA inh (largest number first): three from the list above.
SMILES | Ecoli rRNA inh | Ecoli rRNA inh OD600 | Ecoli rRNA inh RFP | FGF22 binding | MLL AF4-AF9 inh
C[C@H](CO)N1C[C@H](C)[C@@H](CN(C)C(=O)C2CCC2)Oc2ncc(-c3cccnc3)cc2C1=O | 4 | 8 | -2.4 | i | -4.7
COc1cc(C)ccc1S(=O)(=O)NC(=O)C1(C)CCN1C(=O)C1(c2ccc(Cl)cc2)CCC1 (stereo not given) | -10 | 3 | 2.6 | i | -2.5
O=C(NCC1COc2ccccc2O1)c1cc(S(=O)(=O)N2CCOCC2)c(Cl)cc1Cl (stereo not given) | -12 | -14 | 3.6 | i | -7.6

Screens (PubChem)

The list is partial; count on the stated rates, not on these rows.
